# Tg IFNy HTS = inhibitors of Toxoplasma gondii growth with IFN-gamma. 69,000 compounds, 3.8% hits. Toxoplasma gondii growth in IFN-gamma-treated host cells; active compounds read low; reference of the scale not given here. AID 1259416. activity change, negative = inhibition, %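 (about 20 µM by stock and volumes)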;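 active means below -70%; inconclusive means fit judged invalid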;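 further: host cells are HeLa cells infected with Toxoplasma gondii; parasite growth read as luciferase light; one replicate is shown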
# * = called active by the depositor; i = inactive; u = inconclusive; & = joins results of further samples. This is a subset; count on the stated rates, not on these rows.
SMILES,Tg IFNy HTS
C[C@H]1CN([C@@H](C)CO)C(=O)c2ccccc2-c2ccccc2CO[C@H]1CN(C)C(=O)Nc1cccc(Cl)c1Cl,-53
O=C(Sc1ccccn1)N1c2ccccc2Sc2ccccc21,2
CO[C@H](CN(C)Cc1ccc2c(c1)OCO2)[C@H](C)CN(C(=O)Nc1ccc(F)cc1)[C@H](C)CO,22
Cc1nccc(-c2cccc(NC3CCN(c4ccc5c(c4)OCCO5)CC3)c2)n1,247
O=C(C1CC1)N1CCc2cc(-c3csc(C4CC4)n3)ccc21,-112*
O=C(Cc1ccccn1)c1ccc2onc(-c3coc(-c4ccc(F)cc4)n3)c2c1,55
Clc1ccc(CCNc2cc(-c3ccncc3)nc(C3CCNCC3)n2)cc1,-57
CCOc1ccc(CNC(=O)c2cncc(OC)c2)cc1,-34
O=C([C@@H]1CCO[C@@H]2CCN(Cc3ccccc3F)C[C@H]21)N1CCCO1,-2
CN(Cc1ccc(N2CCCC2=O)cc1)Cc1ccccc1N1CCOCC1,10
COc1ccc(CCCC(=O)Nc2ccc(Cn3ccnc3)cc2)cc1C,-4
CN(C)c1ncccc1CN1CCCC(Cc2nc3ccc(F)cc3[nH]2)C1 (stereo unspecified),-5
COc1ccc(CCNCc2ccc3c(c2)n(C)c(=O)n3C)cc1OC,15
C[C@@H]1CN([C@@H](C)CO)C(=O)c2ccccc2-c2ccccc2CO[C@H]1CN(C)S(=O)(=O)c1cn(C)cn1,25
O=S(=O)(c1ccc(Cl)s1)N1CCC2(CC1)NCCN=C2NCc1cc(F)cc(F)c1,-7
CCC(C)(C)NC(=O)Cn1c(=O)ccc2cc(S(=O)(=O)N3CCC(C)CC3)ccc21,-57
Cc1cc(C)cc(CNCC2COCc3c(C)nnn3C2)c1 (stereo unspecified),11
CCOCCn1cnc(-c2ccccc2)c1-c1ncnn1CC,-6
CC(=O)NC1(c2ccc(F)cc2)CCN(Cc2ccc(N3CCCC3)c(F)c2)CC1,-20
O=C(Nc1cccc(Cl)c1)c1nc2c(s1)CCN(c1ncccn1)CC2,166
c1csc(-c2nccn2Cc2ccccc2Cn2cccn2)c1,14
COc1ccccc1CN1[C@@H]2Cn3c(ccc(C4=CCCC4)c3=O)[C@H]1[C@@H](C(=O)N(C)C)[C@@H]2CO,2
O=C(c1cccs1)N1CCN(S(=O)(=O)c2cc3c4c(c2)CCC(=O)N4CCC3)CC1,-32
O=S(=O)(O)Oc1ccc(C(c2ccc(OS(=O)(=O)O)cc2)c2ccccn2)cc1,19
CC(NC(=S)c1ccncc1)c1ccccc1 (stereo unspecified),16
CO[C@@H]1CN(C)C(=O)c2ccc(NC(=O)Nc3ccccc3Cl)cc2OC[C@@H](C)NC[C@@H]1C,-57
COc1ccc(S(=O)(=O)NCc2ccc3c(c2)OCO3)cc1C(=O)N1CCCCC1,19
Cc1cc(-c2cnc(N3CCn4cnnc4C3)nc2-c2ccncc2)on1,4
CN1C2(CCN(S(=O)(=O)C3CC3)C2)c2ccccc2S1(=O)=O (stereo unspecified),3
Cc1cnccc1N1CCCN(C(=O)c2cnn3ccn(C)c23)CC1,-33
CSc1cccc(NC(=S)N2CCCCC2CCN2CCOCC2)c1 (stereo unspecified),15
Cc1ccc(C)c(S(=O)(=O)N2CCC3(CC2)Nc2ccccc2-n2cccc23)c1,44
COc1cccc(-c2nn(C)c3c2[C@H]2CN(C(=O)c4ccncc4)C[C@@H]2C3)c1,11
COc1ccccc1NC(=O)C(=O)NCCc1sc(-c2ccc(Cl)cc2)nc1C,168
COc1ccc2c3c(n(C)c2c1)[C@H](CO)N(C(=O)Cc1ccccc1)CC31CN(C)C1,-15
Cc1ccccc1C1(O)CCN(C(=O)c2cnn3ccn(C)c23)C1 (stereo unspecified),3
C[C@@H]1CCCCO[C@H](CN(C)C(=O)CCC(F)(F)F)[C@@H](C)CN([C@@H](C)CO)C(=O)c2cc(NC(=O)C3CCCCC3)ccc2O1,23
Cc1nc2c(c(=O)[nH]1)CCN(C(=O)c1ccc(CN3CCC(C)CC3)o1)C2,-47
CCS(=O)(=O)N1CCC2(CC1)OC(=O)C(C)=C2C(=O)NCCCN1CCCCCC1,-1
CC1COc2c(F)c(F)cc3c(=O)c(C(=O)O)cn1c23 (stereo unspecified),-4
COc1cc2c(cc1CN1CCOC(CN)C1)OCCCO2 (stereo unspecified),-2
Fc1cnc(N2CC[C@@]3(C[C@H](N4CCCC4)CCO3)C2)nc1,1
C[C@@H]1CN(c2c(F)c(N)c3c(=O)c(C(=O)O)cn(C4CC4)c3c2F)C[C@H](C)N1,13&21
CCCN1CCC(NC(=O)Nc2ccc(Br)cc2)CC1,-24
COc1ccc(NC(=O)c2nnn(Cc3nc(-c4cccc(OC)c4OC)oc3C)c2C)cc1Cl,32
CN(C(=O)C1CC1)C(Cc1ccc(F)cc1F)C1CCN(C(=O)/C=C/c2cccs2)CC1 (stereo unspecified),-7
Cc1nn(-c2ccccc2)c(C)c1CCC(=O)NC1CC(C)(C)Oc2ccccc21 (stereo unspecified),-3
Cc1ccc(-c2nc(CN3CCN(C(=O)Nc4cccc(C)c4C)CC3)c(C)o2)cc1,-1
Cc1ccc(C2(C(=O)NCc3nnc(-c4cnccn4)o3)CCCC2)cc1,164
O=C(NCC[C@H]1CC[C@@H](NS(=O)(=O)c2ccc(F)cc2)[C@H](CO)O1)c1ccc2c(c1)OCO2,-29
Cc1ccc(N2CCN(Cc3ccccc3)C3(CCN(C)CC3)C2=O)cn1,14
O=C(c1ccc(F)cc1)N1CC(=O)N2[C@@H](CO)[C@H](c3ccc(C#CCC4CCCC4)cc3)[C@@H]2C1,-43
CCN(CC)Cc1cnc2n1CCN(CC1CCOC1)CC2 (stereo unspecified),-1
Cc1nc(-c2ccccc2)c(CC(=O)NCc2noc(-c3ccccc3)n2)s1,47
O=C(C[C@@H]1CC[C@@H]2[C@H](COC[C@@H](O)CN2Cc2nccs2)O1)N1CCC(Cc2ccccc2)CC1,-46
CC(C)(C)C(=O)Nc1ccncc1C(=O)O,-10
CC(C)(Oc1ccc2c(c1)CCC2)C(=O)NCC1(O)CCCNCC1 (stereo unspecified),-4
C=CCOc1cccc(CNn2nnnc2N)c1,-8
O=C(NC1CCCCC1)N1[C@@H]2CNC[C@H]1C2c1ccc(-c2ccccc2F)cc1 (stereo partly specified),-18
Cc1nnc(-c2ccccc2-c2ccc(S(C)(=O)=O)cc2)o1,-1
# Following part:
SMILES,Tg IFNy HTS
COCCNC[C@H]1[C@@H](c2ccccc2)[C@@H](CO)N1c1nc(C)c(C)s1,-47
COc1ccc2c3c(n(C)c2c1)[C@H](CO)NCC31CCN(S(=O)(=O)c2cccc(C)c2)CC1,u
COC(=O)c1ccccc1NC(=O)NCc1ccccc1,4
CC(C)N1C2CCN(Cc3nccs3)CC2C[C@H]1Cn1cncn1 (stereo partly specified),4
CC(c1cccc(-c2ccc(-c3nc(C4CC4)no3)cn2)c1)N1CCCC1 (stereo unspecified),-3
CC(=O)N1CCO[C@H]2CCN(C(=O)c3csc(C)n3)C[C@H]21,-30
c1ccc(-c2nnc3n2C2(CCCCC2)Cc2ccccc2-3)cc1,-66
CN(C)S(=O)(=O)CCNC(=O)[C@@H](N)CC1CCCCC1,-1
COCCN1CCCC12CCN(c1cccc(F)c1)CC2,-13
COc1cccc(S(=O)(=O)N(C)C[C@H]2OCc3ccccc3-c3c(n(C)c4ccccc34)C(=O)N([C@@H](C)CO)C[C@H]2C)c1,-72*
CCN(Cc1ccncc1)C(=O)CCNC(=O)c1ccc(F)cc1,75
CSCC(CSC)OC(=O)NC(=O)c1c(Cl)cccc1Cl,-52
O=C(NCCCN1CCOCC1)[C@H]1[C@H](CO)[C@H]2Cn3c(cccc3=O)[C@@H]1N2C(=O)NC1CCCC1,-1
CC(CCc1ccco1)Nc1nc(-c2cccnc2)nc2c1cnn2C (stereo unspecified),-29
CN(C)C(N)=NCCC[C@H](N)C(=O)O,26
CC(=O)NCC1CCC2(CCN(Cc3cc4n(n3)CCCNC4)CC2)O1 (stereo unspecified),-44
CC(C)N1CCN(CCn2ccnc2-c2nccn2C)CC1,30
COc1ccccc1S(=O)(=O)N(C)C[C@@H]1OCc2cn(nn2)CCCC(=O)N([C@@H](C)CO)C[C@@H]1C,15
CCCN1C(=O)CCc2cc(NC(C)=O)ccc21,30
CN1CC(=O)N2CCN(S(=O)(=O)c3ccc(Cl)s3)CC2C1=O (stereo unspecified),5
COc1cccc(C(=O)N[C@H]2C[C@@H](C(=O)NCc3cc(F)ccc3C)N(C)C2)c1,-45
COc1cccc(C(=O)Nc2ccc3c(c2)C(=O)N(C)[C@@H]2CC[C@@H](CC(=O)N[C@@H](C)c4ccccc4)O[C@@H]2CO3)c1,-26
Cc1ccc(C2(O)CCN(C(=O)c3oc4cc(C)ccc4c3C)CC2)nc1,-1
COc1ncccc1CN1CCN(c2cc(-c3nc(C)no3)ccn2)CC1,-2
O=C(/C=C/Sc1ccccc1)c1ccccc1,-6
O=C(CCN1CCCO1)N1CCn2nc(C(=O)N3CCCC3)cc2C1,2
Cc1ccc(-n2ncc(-c3nnc(SCC(=O)c4ccc(Cl)cc4)o3)c2N)cc1C,0
COc1ccc(NC(=O)N(C)C[C@H]2OCCCC[C@H](C)Oc3ccc(NC(=O)c4ccncc4)cc3C(=O)N([C@H](C)CO)C[C@@H]2C)cc1,i
O=C(NCC[C@@H]1CC[C@@H](NS(=O)(=O)Cc2ccccc2)[C@H](CO)O1)C1CCCCC1,-37
Cc1ccc2c(c1)c(CNC(=O)CCN1CCCCO1)nn2C,7
Cc1ccccc1C1CCCN1C(=O)c1cnn2ccn(C)c12 (stereo unspecified),1
CC(C)(C)c1ncc2c(n1)CN(C(=O)c1scc3c1OCCO3)C2,29
C=CCN1CCOCC2(C1)CN(Cc1nccs1)CCO2 (stereo unspecified),95
COc1cc(-c2ccc(S(N)(=O)=O)cc2F)cc(OC)c1OC,-3
Cc1nnnn1-c1ccc(C(=O)O)cc1,-10
CCCC(=O)N1CCC2(CC1)CN(C(C)=O)[C@@H](CO)c1c2c2ccc(OC)cc2n1C,87
CNC(=O)c1cc(-c2cc(OC)cc(OC)c2)ccc1Cl,45
CN1C(=O)c2cc(NC(=O)c3ccc(F)c(F)c3)ccc2OC[C@H]2O[C@@H](CC(=O)N3CCCCC3)CC[C@H]21,6
CN(C)CCCNc1ncc(-c2ccc3c(c2)OCO3)c(-c2nccs2)n1,2
Cc1csc(CCCNc2cc(N(C)C)ncn2)n1,-15
COCC(=O)Nc1cccc(-c2ccc(OC)c3ncccc23)c1,4
Cc1ccc(OC(=O)N(C)C[C@H]2OCc3ccccc3-c3ccccc3C(=O)N([C@H](C)CO)C[C@@H]2C)cc1,-35
CC(C)c1nccc(-c2c(-c3ccccc3)ncn2CC2CCCO2)n1 (stereo unspecified),-53
C/C=C/c1ccc([C@@H]2[C@H](CO)N(C(=O)C3CCC3)C23CN(C(=O)NC(C)C)C3)cc1,93
Nc1ccc(-c2cc3ccccc3o2)cc1,i
CCS(=O)(=O)N1CCC2(CC1)OC(=O)C(C)=C2C(=O)NCc1cccs1,41
CC(=O)c1ccccc1-c1ccccc1C(=O)NC(C)C,-45
CN1CCOc2cc(C(=O)N[C@@H]3C[C@@H](CO)N(C)C3)ccc21,3
CC(C)CN1C(=O)CCc2cc(NS(=O)(=O)c3cccc(F)c3)ccc21,-56
Nc1ccc(OCCN2CCCCCC2)cc1,10
O=C(NCc1c(Cl)cccc1Sc1ccc(Cl)cc1)c1ccc(Cl)cc1,-102*
Cc1nc(CCC(=O)N2CCc3[nH]nc(-c4cccc5ccccc45)c3C2)n[nH]1,5
O=C(Nc1ccc(Cl)cc1)OC1CN(C(c2ccccc2)c2ccccc2)C1,-59
CC(C)n1c(SCC(=O)O)nc2ccccc21,29
O=C(NC1CCC2(CCC(=O)N2CC2CC2)CC1)c1ccoc1 (stereo unspecified),-23
O=C(O)CCCC(=O)Nc1nncs1,-32
COc1ccc2c3c(n(C)c2c1)[C@@H](CO)N(Cc1ccccc1Cl)CC31CCN(C(=O)CC2CC2)CC1,-27
CCc1nc(C)sc1CN1CCC=C(CC(C)NC(C)=O)C1 (stereo unspecified),5
CN1C(=O)c2cc(NC(=O)c3ccc(F)c(F)c3)ccc2OC[C@@H]2O[C@@H](CC(=O)N3CCCCC3)CC[C@H]21,-9
COc1ccc(F)cc1-c1ccc(C(C)N2CCOCC2)cc1 (stereo unspecified),-16
CC(C)n1cnc(C2CN(C(=O)c3ccccn3)c3ccc(C(=O)N4CCC(O)CC4)cc32)n1 (stereo unspecified),-5

# Screening data (PubChem)
